Bioassay records deposited in PubChem BioAssay by National Center for Advancing Translational Sciences (NCATS).
TsaE inh: YjeE (TsaE) inhibition, E. coli; P0AF67; purified YjeE, fluorescence polarisation of a bound ADP probe; Potency, µM; 71,000 tested, 0.05% active; active = well fitted falling curve; inconclusive = weaker or top-dose-only fall, or a rising curve; inactive = flat or poorly fitted curve;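 note: top concentration of the series not given in the record; excess ADP was the control for the full effect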
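Purified YjeE (10 uM) with BODIPY Texas Red-labeled ADP probe (2 uM); compounds pin-transferred, 15 min at room temperature. Binding inhibition read as decreased fluorescence polarization; ADP titration as control.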
PK Bst: pyruvate kinase (B. stearothermophilus) modulation; partly purified Bacillus stearothermophilus pyruvate kinase, luminescence ATP production; ribose 5-phosphate activator present at AC10; Potency, µM; 51,000 tested, 1.2% active; AID 361; in the data active means potency below about 11 µM; inconclusive means mostly about 12 µM to 25 µM; inactive means weaker than that;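 the screen sought inhibitors and activators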;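 note: potency is the fitted concentration of half-maximal effect; scaled between full activation by ribose 5 phosphate and full inhibition by luteolin; about four in five hits inhibit and the cells do not say which; series up to 57 µM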
* marks the source's active call; other numbers are inactive results; i = inactive; · = not tested or not shown. An excerpt; count on the stated rates, not on these rows.

Values run as follows: TsaE inh, PK Bst
1	O=C(O)c1c(-c2c3ccc(=O)cc-3oc3cc(O)ccc23)cc2ccccc2c1-c1ccccc1
    i, ·
2	Cc1cc(N2CCOCC2)nc2ccc(NC(=O)CCC(=O)N3CCCCC3)cc12
    i, >11.4
3	CC(C)=CCCC(C)CCO (stereo not drawn)
    i, ·
4	Cc1ccc(C)n1-c1ccc(-n2cnnn2)cc1
    i, ·
5	CC(C)Cc1nnc(NC(=O)c2ccncc2)s1
    i, >57
6	NC(=O)CSc1nnc(-c2cnccn2)n1-c1ccccc1
    i, >57
7	CC(C)Sc1ncnc2c1oc1ccccc12
    i, >57
8	CC1CN(C2CCN(C(=O)c3ccccc3Cl)CC2)CC(C)O1 (stereo not drawn)
    ·, >25.6
9	C=CCNC(=O)CCCOc1cccc(C)c1
    i, ·
10	COc1ccc(-c2cc(C(F)(F)F)n3nc(C(=O)NCc4ccco4)cc3n2)cc1
    i, ·
11	O=c1cc(CSc2nc3cc(Cl)ccc3o2)nc2sccn12
    i, >57
12	O=C(NCCn1ccc2ccccc21)C1CCCCC1
    i, ·
13	CCCCCCNC(=O)c1c(O)c2ccccc2[nH]c1=O
    i, >57
14	Cn1c(=S)[nH]c2cccnc21
    i, >57
15	Cc1ccccc1-n1c(SCc2c(C)noc2C)nnc1-c1ccncc1
    i, >57
16	Cc1cc(/C=N/n2cnnc2)c(C)n1-c1cc(Cl)ccc1Cl
    i, ·
17	O=C(Nc1ccccc1)c1cc([N+](=O)[O-])ccc1Cl
    i, ·
18	CC12CS(=O)(=O)CC1SC(=S)N2c1ccccn1 (stereo not drawn)
    i, >57
19	O=C(O)CC1C(=O)NCCN1Cc1ccc(F)c(F)c1 (stereo not drawn)
    i, ·
20	CN1CCc2c(sc3c2C(=O)NC(c2ccc4c(c2)OCO4)N3)C1 (stereo not drawn)
    i, i
21	COc1cccc(-c2c(NC(=O)c3ccco3)n(-c3ccc(C)cc3)nc(C)c2=O)c1
    i, >57
22	CCOC(=O)C(NC(=O)CC)(Nc1ccc(S(=O)(=O)Nc2onc(C)c2C)cc1)C(F)(F)F (stereo not drawn)
    i, >57
23	O=C(O)c1ccc(Cl)c2c1C1C=CCC1C(c1ccccn1)N2 (stereo not drawn)
    39.8µM*, ·
24	Cc1ccc(C)c(S(=O)(=O)Nc2ccccc2C(=O)Nc2cc(C)on2)c1
    i, >57
25	Cn1c(SCC(N)=O)nnc1-c1ccccc1
    i, >57
26	O=C(COC(=O)CCC(=O)c1ccc(Cl)cc1)NCC1CCCO1 (stereo not drawn)
    i, >57
27	Cc1c(C(=O)N2CCCc3ccccc32)oc2ccc(S(=O)(=O)N3CCOCC3)cc12
    i, >57
28	COCCCNC(=O)C1CC(=O)N(c2ccc(C)cc2)C1 (stereo not drawn)
    i, >57
29	O=C(NC1CCCCC1)C1CC(=O)N(c2ccc(Cl)cc2)C1 (stereo not drawn)
    i, ·
30	CCc1cccc(NS(=O)(=O)c2c(C)n[nH]c2C)c1
    i, >57
31	CCn1c(C(O)c2ccccc2)nc2ccccc21 (stereo not drawn)
    i, ·
32	CCCOc1ccc(CC(CC(=O)O)(C(=O)O)C(=O)O)cc1
    i, ·
33	O=C(NCc1ccncc1)c1cccc(F)c1
    i, >57
34	Cc1ccc(-c2nc(CSCC(=O)N3CCN(C(=O)c4ccco4)CC3)c(C)o2)cc1
    i, ·
35	C=C(C)CN=c1scc(C)n1/N=C/c1ccco1
    i, >57
36	O=C(O)c1ccc(CNCc2ccccc2)cc1
    i, ·
37	O=C(CN(C(=O)CNS(=O)(=O)c1ccccc1)C1CCCC1)NCc1ccco1
    i, >57
38	COc1ccc(N2C(=O)c3cccc4cccc(c34)C2=O)nn1
    i, >57
39	O=C(CNC(=O)c1cccs1)NCCN1CCN(c2ccccc2F)CC1
    i, >57
40	CN(Cc1ccccc1)C(=O)c1ccc2c(c1)OCCO2
    i, ·
41	O=C(c1ccc2ccccc2c1)N1CCN(c2ccccc2)CC1
    i, >57
42	O=C(O)c1cc(S(=O)(=O)N2CCCC2)ccc1Br
    i, ·
43	CC(C)CN(C(=O)COC(=O)c1cc2ccccc2oc1=O)C1CCS(=O)(=O)C1 (stereo not drawn)
    i, >57
44	C=C(C)c1cccc(C(C)(C)NC(=O)NCCCN2CCCC2=O)c1
    i, >57
45	COc1ccccc1-c1noc(-c2ccccc2C(=O)Nc2ccccc2)n1
    i, >57
46	c1ccc(C(Cc2nc(-c3ccccn3)no2)c2ccccc2)cc1
    i, ·
47	COC(=O)c1ccc(S(=O)(=O)NCCSc2nnc3c4ccccc4n(C)c3n2)cc1
    i, >57
48	Cc1nc(Sc2nnnn2-c2ccccc2)c(C#N)c(C)c1C
    i, ·
49	Clc1ccc(CSc2ncccn2)cc1
    i, >57
50	O=C(CCN1C(=O)C2CC=C(Cl)CC2C1=O)NCc1ccco1 (stereo not drawn)
    i, >57
51	Cc1ccccc1NC(=O)CSc1nnnn1C
    i, >57
52	COc1cccc(OCc2nnc(SCC(=O)OC3CCCCC3)n2C)c1
    i, >57
53	CCCC(c1nnnn1Cc1ccco1)N1CCN(C(=O)c2ccco2)CC1 (stereo not drawn)
    i, >57
54	C/C=C/c1ccc(OCCCn2cncn2)c(OC)c1
    i, >57
55	CCNC(=O)NC(=O)C(C)Oc1ccc(C(=O)OC)cc1 (stereo not drawn)
    i, >57
56	Cc1cc(NC(=O)Nc2cccc(C(F)(F)F)c2)no1
    i, >57
57	COC(=O)C1=C(C)NC(C)=C(C(=O)OC)C1C(=O)OCCN1C(=O)c2ccccc2C1=O
    i, >57
58	CC1=C(C(=O)OC2CCCC2)C(c2ccc(C)o2)C2=C(CC(c3cccs3)CC2=O)N1 (stereo not drawn)
    i, ·
59	CCC(=O)Nc1cc(-c2nnc(OC)c3ccccc23)ccc1N1CCOCC1
    i, >57
60	CC(C)(C)NC(=O)CSc1nnc(Cc2ccc3c(c2)OCO3)n1C1CCCCC1
    i, >57

(next part)
Values run as follows: TsaE inh, PK Bst
61	O=C(O)CSC1=NCCN1
    i, >57
62	Cc1ccc(S(=O)(=O)N2CCN(C(=O)CSc3nc4ccccc4c(=O)[nH]3)CC2)c(C)c1
    i, >57
63	COCCNC(=O)C(c1ccco1)N(C(=O)Cn1nnc2ccccc21)c1cc(C)ccc1C (stereo not drawn)
    i, >57
64	CCOc1ccc(C2C(C#N)=C(N)SC(N)=C2C#N)c(OCC)c1
    i, >57
65	CC(C)(C)OC(=O)N1CC=C2C(C#N)=C(N)C(C#N)(C#N)[C@H](c3cccnc3)[C@H]2C1
    ·, >25.6
66	COC(=O)c1cc(OC)c(OC)cc1NC(=O)c1c(-c2ccccc2)noc1C
    i, >57
67	COCCOC(=O)C1=C(C)N(Cc2ccccc2)C(=O)NC1c1cccc(OC)c1OC (stereo not drawn)
    i, >57
68	CN1C(=O)c2ccccc2C(C(=O)O)C1c1cn(C)c2ccccc12 (stereo not drawn)
    i, >57
69	COc1ccc(-n2c(=O)c(-c3cccs3)nc3cnc(Nc4cccc(OC)c4)nc32)cc1
    i, ·
70	Clc1ccc2c(NCCNC3CCCCC3)ccnc2c1
    i, ·
71	Cc1ccc(CCN2CC(C(=O)NCCN3CCCCCC3)CC2=O)cc1 (stereo not drawn)
    i, >57
72	O=S(=O)(Cc1ccccc1)N1CCCCCC1
    i, >57
73	CCc1cccc(NC(=O)NC2CCCCC2)c1
    i, >57
74	Cc1cnc(CNc2ncncc2-c2c(C)noc2C)cn1
    i, ·
75	O=C(COC(=O)C1=COCCO1)NCCCc1ccccc1
    i, >57
76	Cc1nc2ccccc2n1CC(=O)NCc1ccccc1
    i, >57
77	CCCSc1nnc(-c2cccc(S(=O)(=O)N(C)C)c2)n1-c1cc(OC)ccc1OC
    i, >57
78	CCN1CC2CCCC3(C1)C(=O)NC1(CCCCC1)N=C23 (stereo not drawn)
    i, >57
79	COc1ccc(-c2nc(C#N)c(NCc3ccccc3Cl)o2)cc1OC
    i, >57
80	O=c1c(F)cn(C2CCCO2)c(=O)n1Cc1ccccc1F (stereo not drawn)
    i, >57

Compound profiles, from the list above. Order of values: TsaE inh	PK Bst
`CCc1cccc(NC(=O)NC2CCCCC2)c1` as listed: i	>57
`CC(C)(C)OC(=O)N1CC=C2C(C#N)=C(N)C(C#N)(C#N)[C@H](c3cccnc3)[C@H]2C1` as listed: ·	>25.6
`Cc1cnc(CNc2ncncc2-c2c(C)noc2C)cn1` as listed: i	·

Other results:
Values run as follows: TsaE inh, PK Bst
81	CCOC(=O)CCCNC(=O)CCNC(=O)c1ccc(OC)cc1
    i, ·
82	Nc1nnc(C(=O)c2ccccc2N)s1
    i, i
83	CCC12CN3CC(CC)(CN(C1)C3c1ccccc1Cl)C2O (stereo not drawn)
    i, >57
84	COc1ccc(CN(C(=O)c2ccco2)c2ccc(C)cc2)cc1OC
    i, >57
85	CCN(CC)S(=O)(=O)c1ccc2c(c1)c(=O)c(C(=O)N1CCOCC1)cn2C
    i, >57
86	CCOC(=O)CN(C(=O)CSc1nnc(-c2ccc(OC)c(OC)c2)o1)c1ccc(F)cc1
    i, >57
87	COc1cc2c(cc1OC)C(C(=O)NCC1COc3ccccc3O1)C(c1cccnc1)N(C)C2=O (stereo not drawn)
    i, >57
88	Cc1cc(C)n(Cc2ccccc2F)c(=O)c1C#N
    i, ·
89	CN(C)/C=C/C(=O)c1nnn(C2CCCCC2)c1NC1CCCCC1
    i, ·
90	O=C(COC(=O)c1ccccn1)Nc1cc(Cl)ccc1Cl
    i, >57
91	CC(=O)N1C(=O)N(C)C2C1N(C(C)=O)C(=O)N2C (stereo not drawn)
    i, >57
92	CCCCCCSC1=C(C#N)C(c2ccc(C)o2)CC(=O)N1 (stereo not drawn)
    i, >57
93	CCN(CC)S(=O)(=O)c1cccc(C(=O)Nc2nncs2)c1
    i, >57
94	CCOCCCNC(=O)c1ccc(CS(=O)(=O)Cc2ccc(C)cc2)o1
    i, >57
95	O=C(COc1ccc(-c2nnco2)cc1)NC1CCCc2ccccc21 (stereo not drawn)
    i, i
96	O=C(NC1CC2CCC(C1)N2C(=O)NC1CCCCC1)NC12CC3CC(CC(C3)C1)C2 (stereo not drawn)
    i, >57
97	CCc1nnc(NC(=O)c2ccc(OC)cc2OC)s1
    i, ·
98	Cc1cc(C)nc(SCCS(=O)(=O)Cc2ccccc2)n1
    i, >57
99	CCOCc1nnc(NC(=O)COC)s1
    i, >57
100	C/C=C\c1ccc(OC)cc1
    i, ·

Quoted from above, entries 81–82
Values run as follows: TsaE inh, PK Bst
81	CCOC(=O)CCCNC(=O)CCNC(=O)c1ccc(OC)cc1
    i, ·
82	Nc1nnc(C(=O)c2ccccc2N)s1
    i, i

Next section.
Values run as follows: TsaE inh, PK Bst
101	CCc1ccc(NC(=O)CSc2nnc(Cc3cccn3C)n2-c2ccc(OC)cc2)cc1
    i, ·
102	COc1ccc(OCCOCC(O)CN2CCOCC2)cc1 (stereo not drawn)
    i, >57
103	CN(C)CCNCCN
    i, ·
104	Cc1nc(C)c(C(=O)Nc2ccc(C)c(F)c2)o1
    i, >57
105	CN1CCN(CN2C(=O)C3C4C=CC(C3C2=O)C2C3C(=O)N(CN5CCN(C)CC5)C(=O)C3C42)CC1 (stereo not drawn)
    i, ·
106	CCOC(=O)N1CCC(NC(=O)c2ccc(OC)c(CN3CC(=O)N4CCCC4C3=O)c2)CC1 (stereo not drawn)
    i, >57
107	COc1ccc(CN(C)C2CCCCC2)cc1
    i, ·
108	Cc1ccc2cc(CCNS(=O)(=O)c3ccc(F)cc3)c(=O)[nH]c2c1
    i, ·
109	Cn1c(SCC(=O)Nc2ccc(N3CCOCC3)cc2)nnc1-c1ccccc1
    i, ·
110	CCC(C)NC(=O)C1(C)CCC(=O)N1CCc1ccc(OC)c(OC)c1 (stereo not drawn)
    i, >57
111	CCc1c(C)nc(N2CCN(Cc3ccccc3)CC2)[nH]c1=O
    i, >57
112	O=S(=O)(NC1CCCC1)c1ccc(S(=O)(=O)N2CCCN(Cc3ccccc3)C2)cc1
    i, >57
113	CCCOc1ccc(-c2nc(C#N)c(N3CCN(C)CC3)o2)cc1
    i, 7.26*
114	COC(=O)CSc1nnc(CNC(=O)c2cccs2)n1-c1cccc(C)c1
    i, >57
115	O=C1CN(C(=O)CSc2nncn2-c2ccccc2)c2ccccc2N1
    i, >57
116	CSc1nc(-c2ccco2)nn1C(=O)c1ccc(C)cc1
    i, ·
117	COc1cc(C)c(S(=O)(=O)Nc2ccccc2F)cc1C
    i, >57
118	N#Cc1c(N)c(C(=O)c2ccccc2)n2c1CCCC2
    i, >57
119	O=C(Oc1ccccc1)c1ccccc1O
    i, ·
120	CCOc1ccc(C(=O)NCCN(C)C)cc1
    i, >57
121	O=C(NCCO)c1cc2ccccc2c(=O)s1
    i, >57
122	CN(C)c1ccc(C(C(=O)NC(C)(C)C)N(C(=O)c2csnn2)C2CC2)cc1 (stereo not drawn)
    i, >57
123	O=C(CN1CCN(C(=O)c2ccccc2)CC1)Nc1ncc(Br)cc1Br
    i, >57
124	CCOC(=O)CSc1nc2ccccc2c(=O)n1C
    ·, >25.6
125	CC(C)OC(=O)CN1C(=O)c2ccccc2C1=O
    i, ·
126	Nc1nc(N)nc(CCCCc2nc(N)nc(N)n2)n1
    i, ·
127	O=C(O)c1ccc(COc2cccc(CO)c2)cc1
    i, >57
128	O=C(Oc1ccccc1)N1CCC[C@@]2(CCN(c3ccccn3)C2)C1
    i, ·

Part of the list above, as labelled records.
(35) C=C(C)CN=c1scc(C)n1/N=C/c1ccco1
  TsaE inh = i
  PK Bst = >57
(36) O=C(O)c1ccc(CNCc2ccccc2)cc1
  TsaE inh = i
  PK Bst = ·
(37) O=C(CN(C(=O)CNS(=O)(=O)c1ccccc1)C1CCCC1)NCc1ccco1
  TsaE inh = i
  PK Bst = >57
